# Assay outcomes (PubChem)
# EPAC1 ag val – validation of human EPAC1 agonists; EPAC1 Rap1b BODIPY-GDP exchange, fluorescence; AID 1645883; Potency, µM, for the others: max response, positive = active, hits mostly activators; 16,000 compounds, 1% hits; O95398; active = well fitted activation curve with a large enough effect; inconclusive = small, poorly fitted or top-dose-only effect; inactive = no such curve, though single readings can be large or run the other way;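 also: nearly all actives have a fitted effect of over 70% in size; series mostly up to about 76 or 150 µM; scaled to a cAMP control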
# Target sequence (O95398 whole entry, looked up): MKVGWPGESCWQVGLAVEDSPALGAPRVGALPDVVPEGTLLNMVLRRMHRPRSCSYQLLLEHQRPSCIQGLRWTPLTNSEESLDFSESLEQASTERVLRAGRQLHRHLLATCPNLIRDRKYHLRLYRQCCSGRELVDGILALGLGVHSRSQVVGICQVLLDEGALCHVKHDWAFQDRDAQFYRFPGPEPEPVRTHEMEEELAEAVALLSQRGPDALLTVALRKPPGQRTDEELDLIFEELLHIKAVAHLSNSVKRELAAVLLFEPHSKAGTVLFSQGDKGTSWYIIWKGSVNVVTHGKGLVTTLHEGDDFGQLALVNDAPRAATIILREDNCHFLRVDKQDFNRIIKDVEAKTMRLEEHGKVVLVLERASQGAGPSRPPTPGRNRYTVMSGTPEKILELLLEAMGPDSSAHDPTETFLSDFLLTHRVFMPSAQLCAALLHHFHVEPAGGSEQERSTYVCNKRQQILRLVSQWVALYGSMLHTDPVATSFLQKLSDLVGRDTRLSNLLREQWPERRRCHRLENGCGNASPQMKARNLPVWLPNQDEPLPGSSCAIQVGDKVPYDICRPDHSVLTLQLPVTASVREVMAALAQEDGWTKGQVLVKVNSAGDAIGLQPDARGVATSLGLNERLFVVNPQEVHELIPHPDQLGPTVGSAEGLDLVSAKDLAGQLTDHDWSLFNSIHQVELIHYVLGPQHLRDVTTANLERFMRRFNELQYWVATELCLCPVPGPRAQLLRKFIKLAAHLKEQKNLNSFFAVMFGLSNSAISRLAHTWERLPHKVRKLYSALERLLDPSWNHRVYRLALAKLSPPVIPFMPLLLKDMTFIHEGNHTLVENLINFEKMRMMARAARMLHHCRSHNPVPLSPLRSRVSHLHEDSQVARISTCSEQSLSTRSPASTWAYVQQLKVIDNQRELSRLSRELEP
# * hit, by the source's call; ? = inconclusive; & = joins results of further samples; [ ] = dose if it differs, or a comment. % is scaled to controls: 0 for no effect and ±100 for the full control effect; potency is read from the fitted curve at half-maximal effect.
SMILES,EPAC1 ag val
c1ccc(-c2onc(-c3ccco3)c2-c2ccc3c(c2)OCO3)cc1,112µM*
COc1ccc(-c2nc3cnc(N4CCNCC4)nc3n(Cc3cccs3)c2=O)cc1,?
C[C@@H]1NC(=O)[C@@H](N)CNC(=O)[C@H](C2CCNC(N)=N2)NC(=O)/C(=C/NC(N)=O)NC(=O)[C@H](CNC(=O)C[C@@H](N)CCCN)NC1=O (stereo partly drawn),0%&4%
COc1ccc(CNC(=O)C[C@H]2C(=O)N(CCc3ccccc3)C[C@@H]2Cc2ccccc2)cc1,-26%
Nc1ccc2cc3ccc(N)cc3nc2c1,100µM*
Cc1noc(C)c1C(=O)N1CCC2(CCN(Cc3nccs3)CC2)CC1,-69%[inhibitor]
COCC(=O)N1CCC2(CCCN(C(=O)Nc3cccc(C#N)c3)C2)CC1,-33%[inhibitor]
CN(Cc1ccco1)c1cc(-c2cccnc2)ncn1,1%
CN(C)c1ccc(/C=c2\[nH]c(=O)/c(=C/c3ccc(N(C)C)cc3)[nH]c2=O)cc1,9%
FC(F)(F)c1ccccc1-c1ccc2ncnc(N3CCOCC3)c2c1,-46%[inhibitor]
C[C@H](C[C@H](N)C(=O)O)C(=O)O,10%
C/C=C1\C2C=C(C)CC1(N)c1ccc(=O)[nH]c1C2 (stereo not drawn),-19%
Cn1cccc1C(=O)N1CCC2(CC1)CN(c1ccncc1)C2,?
CC(=O)Nc1ccccc1-c1nc(CNC(=O)c2ccc(C)cc2)c(C)o1,1%
CS(=O)(=O)N1CCC2(CCCN(C(=O)Nc3cccc(F)c3)C2)CC1,-33%[inhibitor]
O=C(c1ccco1)N1CCC2(CCCN(c3cccc(-c4ccccc4)c3)C2)CC1,?
O=C(Nc1cc(C(=O)NC2CCOCC2)c2c(c1)ncn2C1CCCC1)c1ccccc1,-5%
CCC1(C2CCN(C(=O)c3coc4c3C(=O)CCC4)CC2)NC(=O)N(CCc2scnc2C)C1=O (stereo not drawn),-6%
CCCCNC(=O)[C@@H]1CC=C[C@@H]2CCN(C3CC3)C(=O)[C@@H]21,-14%
Cc1cc(C)n(CCC(=O)NCC2Cc3cc(Cl)cc(-c4cnccn4)c3O2)n1 (stereo not drawn),-8%
C[C@@H]1CN(CCCn2c3ccccc3c3ccccc32)C[C@H](C)N1,-20%
O=C(c1csnn1)N1CCC2(CC1)CN(C(c1ccccc1)c1ccccc1)C2,-29%
COc1cc(C)c(Cc2cnc(N)nc2N)cc1OC,-7%
COc1c(O)cccc1O,-6%
Cc1noc(C)c1-c1nccc(N(C)Cc2ccco2)n1,-2%
N[C@H](CO)Cc1cnc[nH]1,12%
O=c1c(-c2ccccc2)nc2cnc(Oc3ccccc3)nc2n1Cc1cccs1,-51%[inhibitor]
CC1(C)OC2CC3C4CC(F)C5=CC(=O)CC[C@@]5(C)C4C(O)C[C@@]3(C)[C@]2(C(=O)CO)O1 (stereo partly drawn),?
N#Cc1cccc(NC(=O)N2CC[C@@]3(CCCN(C(=O)c4cccc(F)c4)C3)C2)c1,9%
O=[N+]([O-])c1cccc(S(=O)(=O)NCCNS(=O)(=O)c2cccc([N+](=O)[O-])c2)c1,-15%
CN1CCN(C2=Nc3ccccc3Sc3ccc(Cl)cc32)CC1,-6%&-12%
CO[C@H]1[C@H](NC(=O)c2ccsc2)c2ccccc2C12CCN(Cc1cnn(C)c1C)CC2,-6%
COC(=O)c1cn([C@@H]2C[C@@H](C(=O)Nc3cccc(SC)c3)N(C3CCCCCC3)C2)nn1,-4%
CCN(CC)CCNc1ccc(CO)c2sc3ccccc3c(=O)c12,24%
C/C=C(/C)C(=O)OC1Cc2c(ccc3ccc(=O)oc23)OC1(C)C (stereo not drawn),1%
CC(=O)O[C@H]1C[C@@]2(C)[C@@H](C[C@@H](O)[C@H]3[C@@]4(C)CC[C@@H](O)[C@@H](C)[C@@H]4CC[C@@]32C)/C1=C(\CCC=C(C)C)C(=O)O,-76%[inhibitor]
COc1ccc2[nH]cc(CC(N)C(=O)O)c2c1 (stereo not drawn),-11%&7%
COc1ccc(C(=O)N(O)c2ccccc2)cc1,-19%
NC[C@@H](O)c1ccc(O)c(O)c1,-3%
CC(C)CCCC(C)C1CCC2C3CC=C4CC(O)CC[C@@]4(C)C3CC[C@@]12C (stereo partly drawn),21%
NC(N)=N/N=C/c1c(Cl)cccc1Cl,0%&-22%
COc1cccc(CN2CCC(c3nnc(SCC4CCCO4)n3C)CC2)c1O (stereo not drawn),-7%
COCC(=O)N1CCC2(CCCN(Cc3ccccc3)C2)CC1,-55%[inhibitor]
COc1ccc2c(c1)OC/C(=C\c1ccc(OC)c(O)c1)C2=O,-27%
COC(=O)N1CCC2(CC1)CCN(C(c1ccccc1)c1ccccc1)CC2,-39%[inhibitor]
Cc1cc(C(C)(C)C)c(O)c(C)c1CC1=NCCN1,?
C/C(=C\c1ccco1)CN1CCOc2ccc(C(C)(O)COc3ccccc3)cc2C1 (stereo not drawn),27%
COCCn1c(=O)c(C)nc2cnc(Oc3ccccc3)nc21,-35%[inhibitor]
CC(C)C(=O)NCC1CCC2(CCN(Cc3ccc(-c4cccc(Cl)c4)o3)CC2)O1 (stereo not drawn),-11%
O=C1NC(=O)C(c2ccccc2)(c2ccccc2)N1,?
O=c1c(CCc2ccccc2)nc2cnc(N3CCNCC3)nc2n1Cc1cccs1,-17%
O=C1CCC[C@@H]2C[C@@]3(C[C@@H]4CCN1[C@H]24)Nc1cc(Cl)c(Cl)cc1NC3=NCc1ccccc1,26%
Cc1ncc2c(c1CNC(=O)c1ccc3c(c1)OCO3)CCN(C(=O)c1cccc(-n3cccn3)c1)C2,9%
Cc1cc(C(=O)N(Cc2cc3cc4c(cc3nc2N2CCOCC2)CCC4)CC2CCCO2)c(=O)[nH]c1C (stereo not drawn),12%
N#Cc1cccc(-c2nc(NCc3cccs3)c3ccccc3n2)c1,?
CS(=O)(=O)N1CCC2(CCCN(c3ncccn3)C2)CC1,-19%
CCCCCCCCCC(=O)NO,8%&-28%
O=C(Oc1ccccc1)N1CCC2(CC1)CCN(c1ccncc1)CC2,-71%[inhibitor]
COc1cc(CN2CCOc3ccc(CN4CCN(CCO)CC4)cc3C2)ccc1F,-20%
CCN(CC)C(=O)c1cc(S(=O)(=O)Cc2ccccc2)c(N2CCC(c3ccccc3)CC2)cc1N(CC)CCN(C)C,-38%[inhibitor]
# Next compounds follow:
SMILES,EPAC1 ag val
Cc1ccc(C)c(CN2C[C@H](Sc3ccccn3)C[C@H]2C(=O)Nc2ccc3sc(C)nc3c2)c1,-11%
CN(C(=O)C(Cl)Cl)c1ccc(OC(=O)c2ccco2)cc1,3%
COC(=O)[C@H](C)NS(=O)(=O)C1CC1,-7%
C[C@]12CC[C@@H]3c4ccc(O)cc4CC[C@H]3[C@@H]1CC[C@@H]2OC(=O)CCC1CCCC1,?
CS(=O)(=O)N1CCC2(CC1)CN(c1ccccc1)C2,24%
Cn1cccc1C(=O)N1CCC2(CCCN(c3cccc(-c4ccccc4)c3)C2)CC1,112µM*
CCN(Cc1ccncc1)Cc1ccc2c(c1)CN(C(=O)c1cccc(-n3nc(C)cc3C)c1)CCO2,-3%
O=C1CC[C@@]23/C=C/C(=O)NCCCCNCCCNC(=O)/C=C/c4ccc(c2c4)OC3C1 (stereo partly drawn),?
O=C(c1ccccc1)C(O)c1ccccc1 (stereo not drawn),1%
COc1ccc(-c2nc3cnc(N4CCNCC4)nc3n(Cc3cccc(OC)c3)c2=O)cc1,?
COc1ccc(C(=O)N2CCC3(CCCN(Cc4ccncc4)C3)CC2)cc1,-57%[inhibitor]
[N-]=[N+]=NCCN1CCN(Cc2ccccc2)CCC1=O,?
C/C=C(\C)C(=O)NCCN1Cc2ccccc2OC(c2ccccc2OC)C1 (stereo not drawn),7%
C[C@]12C=CC(=O)C=C1CC[C@H]1[C@@H]3C[C@@H](O)[C@](O)(C(=O)CO)[C@@]3(C)C[C@H](O)[C@@]12F,-4%&14%
Cc1ccc(/C(=C/CN2CCCC2)c2ccccn2)cc1,-21%
Cc1c(N)c(=O)n(-c2ccccc2)n1C,?
COc1ccc(NC(=O)N2CCC3(CC2)CCN(S(C)(=O)=O)CC3)cc1,-56%[inhibitor]
O=c1cc(-c2ccc(O)c(O)c2)oc2cccc(O)c12,8%
CCN(CC)c1ccc(C(=C2C=CC(=[N+](CC)CC)C=C2)c2ccccc2)cc1,14%
O=C1CC[C@H](O)CCN1CCSc1ccc(Br)cc1,-7%
CO[C@]1(NC(=O)CSC(F)F)C(=O)N2C(C(=O)O)=C(CSc3nnnn3CCO)CO[C@H]21,6%
O=S(=O)(N(Cc1ccccc1)[C@H](CO)Cc1ccccc1)N(Cc1ccccc1)[C@H](CO)Cc1ccccc1,30%
CC(C)c1c(C(=O)NCc2ccccn2)cnn1-c1nccc(-c2ccccc2F)n1,-11%
COc1ccccc1-c1ccc2ncnc(N3CCOCC3)c2c1,-36%[inhibitor]
C[n+]1ccc(C(c2c[nH]c3ccccc23)c2cc[n+](C)c3ccccc23)c2ccccc21,-10%
O=C1C=CC2=C3c4cc(O)c(O)cc4CC3(O)COC2=C1O (stereo not drawn),?
N#Cc1cccc(-c2ccc3ncnc(NCc4cccnc4)c3c2)c1,-38%[inhibitor]
CCNc1ncc2ncc(=O)n(CCc3ccccc3)c2n1,-10%
CC(C(O)c1ccc(O)cc1)N1CCC(Cc2ccccc2)CC1 (stereo not drawn),-2%&-11%
COc1ccc(Oc2ncc3nc(-c4ccc(F)cc4)c(=O)n(C[C@H]4CCCO4)c3n2)cc1,-13%

# An excerpt taken from the entries so far, for reference:
SMILES,EPAC1 ag val
Cc1c(N)c(=O)n(-c2ccccc2)n1C,?
COc1ccc(NC(=O)N2CCC3(CC2)CCN(S(C)(=O)=O)CC3)cc1,-56%[inhibitor]
O=c1cc(-c2ccc(O)c(O)c2)oc2cccc(O)c12,8%
CCN(CC)c1ccc(C(=C2C=CC(=[N+](CC)CC)C=C2)c2ccccc2)cc1,14%
O=C1CC[C@H](O)CCN1CCSc1ccc(Br)cc1,-7%
CO[C@]1(NC(=O)CSC(F)F)C(=O)N2C(C(=O)O)=C(CSc3nnnn3CCO)CO[C@H]21,6%
O=S(=O)(N(Cc1ccccc1)[C@H](CO)Cc1ccccc1)N(Cc1ccccc1)[C@H](CO)Cc1ccccc1,30%
CC(C)c1c(C(=O)NCc2ccccn2)cnn1-c1nccc(-c2ccccc2F)n1,-11%
COc1ccccc1-c1ccc2ncnc(N3CCOCC3)c2c1,-36%[inhibitor]
C[n+]1ccc(C(c2c[nH]c3ccccc23)c2cc[n+](C)c3ccccc23)c2ccccc21,-10%
O=C1C=CC2=C3c4cc(O)c(O)cc4CC3(O)COC2=C1O (stereo not drawn),?
N#Cc1cccc(-c2ccc3ncnc(NCc4cccnc4)c3c2)c1,-38%[inhibitor]
CCNc1ncc2ncc(=O)n(CCc3ccccc3)c2n1,-10%
CC(C(O)c1ccc(O)cc1)N1CCC(Cc2ccccc2)CC1 (stereo not drawn),-2%&-11%
COc1ccc(Oc2ncc3nc(-c4ccc(F)cc4)c(=O)n(C[C@H]4CCCO4)c3n2)cc1,-13%

# The results go on.
SMILES,EPAC1 ag val
C=Cc1ccc(S(=O)(=O)O)cc1,-22%
CC1(C)CC2/C(CO)=C/C=C/[C@](C)(O)CC[C@]21O (stereo partly drawn),-25%
CN(Cc1ccco1)c1ccnc(-c2cccc(C#N)c2)n1,?
Cc1cccnc1-c1cccc2c1OC(CNC(=O)C(=O)c1ccccc1)C2 (stereo not drawn),-6%
CCCCCCCCCCCC(=O)[O][Sn]([CH2]CCC)([CH2]CCC)[O]C(=O)CCCCCCCCCCC,-48%[inhibitor]
O=c1c(-c2cc(F)cc(F)c2)nc2cnc(N3CCNCC3)nc2n1Cc1cccs1,?
COc1cccc(Cn2c(=O)c(-c3cccc(F)c3)nc3cncnc32)c1,?
CN1CCN(c2ccnc(-c3ccoc3)n2)CC1,?
O=C(C[n+]1ccccc1Cl)c1ccc(F)cc1,16%
Cc1ccc(C(=O)O[C@H](C(=O)O)[C@@H](OC(=O)c2ccc(C)cc2)C(=O)O)cc1 (tested in a mixture with another compound),-3%
OCc1cccnc1,6%
COc1cc(=O)n2c(c1C(=O)N(C)Cc1nonc1C)CCN(Cc1cccc3ccccc13)CC2,6%
Cc1nc2cnc(N3CCN(C)CC3)nc2n(Cc2cccs2)c1=O,-37%[inhibitor]
CCNCCCNCCCNCCCNCC,-1%
O=C(Nc1ccccc1)O[C@@H]1C[C@H]2CCC(=O)N3CC[C@@H](C1)[C@@H]23,-16%

# The final two records of the section above open the next one:
SMILES,EPAC1 ag val
CCNCCCNCCCNCCCNCC,-1%
O=C(Nc1ccccc1)O[C@@H]1C[C@H]2CCC(=O)N3CC[C@@H](C1)[C@@H]23,-16%
CCCCCCCCCCCCCCCCCC[N+](C)(C)CCC[Si](OC)(OC)OC,-14%
O=C(NCC1(N2CCOCC2)CCCC1)c1cnn(-c2nccc(-c3ccco3)n2)c1C1CC1,-23%
COc1ccc(CN2CCCC(n3cc(C(=O)N4CCCCC4)nn3)C2)c(OC)c1C (stereo not drawn),6%
CN(C)Cc1ccccc1-c1ccc2ncnc(NCc3ccccc3)c2c1,-25%
COc1ccc2[nH]cc(CCNc3cc(-c4c(C)noc4C)ncn3)c2c1,11%
Cc1cccc(C)c1NC(=O)CN1CCCC1,0%
N#CCCn1c(=O)c(-c2ccc(Cl)cc2)nc2cnc(N3CCOCC3)nc21,18%
O=C(NC1CCC(=O)N(CCSc2ccccc2)CC1)OCc1ccccc1 (stereo not drawn),8%
O=C1CCC(O)CCN1CCSc1ccccc1 (stereo not drawn),28%
COc1cccc(Cn2c(=O)cnc3cncnc32)c1,-1%
COc1ccc2[nH]cc(CCNc3ncnc4ccc(-c5ccccc5C#N)cc34)c2c1,112µM*
COc1ccc2[nH]cc(CCNc3ncnc4ccc(-c5ccccc5CN(C)C)cc34)c2c1,9%
O=c1cc(-c2ccccc2)oc2c(O)c(O)ccc12,2%

# This is a subset, so the mix of outcomes need not match the whole.
